# YopH PTP inh = inhibitors of Yersinia enterocolitica YopH tyrosine phosphatase; fluorescence Ex485/Em525; 140,000 tested, 0.16% active; inhibition, %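 (about 10 µM by stock and volumes)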; AID 898;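 active means inhibition of 50% or more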;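 further: controls were vehicle for no effect and minimum signal wells for full effect; inactives centre near -20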
# Arbovirus inh = arbovirus infection inhibition | arbovirus infection cell-based antiviral screen | inhibition, % at 10 µM | 200,000 tested, 0.37% active | AID 1251;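 active means inhibition from about 30%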;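 further: bluetongue infection of BSR cells; cell survival read as ATP light after 72 h; 0% = infected wells without compound and 100% = uninfected wells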
# Mtb betalactam = beta-lactam sensitization of Mtb H37Rv | M. tuberculosis H37Rv growth with meropenem, percent inhibition; hits of this screen are not shown here | inhibition, % at 25 µM | AID 434955 | 330,000 tested, 0.27% active;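 active means about 74% or more and at least 40 points above the plate without the antibiotic, then above 30% in a dose series; inconclusive means first-round hits that could not be retested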;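 further: growth measured after seven days incubation then overnight dye step; 0% = bacteria only wells and 100% = bacteria with antibiotic; twin plates without the antibiotic show which effects depend on it; some results filed as inactive read as strong as hits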
# RecA splice inh = blocks M. tuberculosis RecA intein splicing | cell-free RecA intein splicing, fluorescence | 290,000 tested, 0.75% active | inhibition, %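 (about 9 µM by stock and volumes)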 | P9WHJ3; in the data active means inhibition above about 30%; inconclusive means no clear call, values can overlap the other calls;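 further: 0% = vehicle wells and 100% = reference inhibitor control wells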
# Target sequence (P9WHJ3 whole entry, looked up, canonical isoform): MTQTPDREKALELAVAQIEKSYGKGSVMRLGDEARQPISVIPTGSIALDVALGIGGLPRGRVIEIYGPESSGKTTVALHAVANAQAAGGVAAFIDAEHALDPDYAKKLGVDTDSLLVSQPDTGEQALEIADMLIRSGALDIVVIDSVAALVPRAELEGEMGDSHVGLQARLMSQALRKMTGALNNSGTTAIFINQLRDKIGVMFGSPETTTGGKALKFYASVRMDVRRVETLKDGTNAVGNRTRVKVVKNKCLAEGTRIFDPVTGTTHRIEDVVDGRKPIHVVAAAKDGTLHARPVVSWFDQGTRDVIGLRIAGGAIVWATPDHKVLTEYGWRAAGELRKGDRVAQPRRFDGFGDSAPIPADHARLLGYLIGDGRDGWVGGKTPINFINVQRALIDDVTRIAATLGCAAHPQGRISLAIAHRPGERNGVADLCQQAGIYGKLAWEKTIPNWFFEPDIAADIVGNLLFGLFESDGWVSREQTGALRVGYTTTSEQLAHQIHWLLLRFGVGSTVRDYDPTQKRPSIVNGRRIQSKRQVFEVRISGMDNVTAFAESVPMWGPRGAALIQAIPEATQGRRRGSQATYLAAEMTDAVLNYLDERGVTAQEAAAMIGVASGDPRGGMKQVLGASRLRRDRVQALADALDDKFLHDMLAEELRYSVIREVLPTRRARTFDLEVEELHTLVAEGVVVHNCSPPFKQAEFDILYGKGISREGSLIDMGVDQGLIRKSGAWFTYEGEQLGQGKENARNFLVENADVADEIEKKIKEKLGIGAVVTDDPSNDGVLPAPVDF
# Mtb growth = M. tuberculosis H37Rv growth inhibitors, H37Rv strain (AID 1626). M. tuberculosis H37Rv growth inhibition; higher % means a stronger effect. one-dose inhibition, % at 10 µM; IC50 in µM for titrated hits. 220,000 tested, 0.95% active;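 active means confirmed in a dose series; inconclusive means inhibition above 80% but not taken into the dose series; inactive means below 80% or under 30% at every dose of the series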;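 further: bacteria incubated seven days before Alamar blue readout; 0% = bacteria only wells and 100% = bacteria with antibiotic wells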
# Arbovirus inh repeat = also measured in Arbovirus inh; calls as there; inhibition, %; measured here: 10K subset replicate screen; many hits read low in the repeat;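 first of two repeat runs on a subset; 0% = infected and 100% = uninfected wells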
# The depositor's hits bear a star; u = inconclusive; x = no result given. The list is partial; rates above refer to the full screens.
SMILES,YopH PTP inh,Arbovirus inh,Mtb betalactam,RecA splice inh,Mtb growth,others
C=CCn1c(SCC(=O)NCCO)nc2sc(C)c(C)c2c1=O,x,10.9,-4.1,-5.3,6.7%,
S=C(NCCc1ccccc1)NCCc1cnc[nH]1,x,x,-2.0,1.6,x,
O=C(COC(=O)c1cccc(S(=O)(=O)N2CCOCC2)c1)Nc1ncc(C(F)(F)F)cc1Cl,-4.9,2.8,2.0,0.4,-5.7%,
NNC(=O)c1cncn1-c1ccc(F)cc1,x,22.0,6.9,-0.9,0.0%,
CC1=C(c2ccccc2)[N+](=O)C2(CCCCC2)N1[O-],x,12.5,-4.9,-1.0,9.6%,
O=C(NCCCN1CCCCCC1)c1ccc2c(c1)NC(=O)C(N1CCOCC1)S2 (stereo unspecified),-4.5,1.5,-6.8,-5.8,5.0%,
O=C1C(=O)N(CCCN2CCOCC2)C(c2ccc(F)cc2)/C1=C(/O)c1ccccc1 (stereo unspecified),x,x,-1.9,-1.7,x,
CCOc1ccccc1NC(=S)NCc1ccccc1,x,x,-6.3,-0.8,x,
O=C(NC(=O)c1ccc(Cl)cc1)Nc1ccc(-c2cnco2)cc1,x,x,95.0,1.2,u,
O=C(NCc1cccnc1)NC(=O)c1ccc(Cl)cc1,x,x,-10.0,-0.2,x,
COc1cccc(-n2nnc3c(=O)n(CC(=O)N4CCCc5ccccc54)cnc32)c1,-19.2,4.6,-1.5,-4.9,2.6%,
COCCN(CCOC)C(=O)c1cc2sc3ccccc3c2s1,-37.0,-5.6,0.9,0.7,0.1%,Arbovirus inh repeat=-1.5
O=C(NCCCCCNC(=O)c1cccnc1)c1cccnc1,-42.3,1.1,-3.0,-0.8,1.3%,
O=C(c1ccc2c(c1)OCO2)n1nnc2ccccc21,-48.8,-6.6,x,10.0,-4.8%,
COc1cccc(-n2nnc3c(=O)n(CC(=O)Nc4cc(C)on4)cnc32)c1,x,-4.3,3.5,1.4,12.3%,
O=c1oc2ccccc2cc1-c1csc(Nc2ccc(O)cc2)n1,x,-2.7,-4.6,-3.9,-1.0%,
Nc1c(S(=O)(=O)c2cc(Cl)ccc2Cl)c2nc3ccccc3nc2n1CCN1CCOCC1,-1.4,-12.5,-8.9,-4.8,0.1%,
CCc1ccc(S(=O)(=O)Nc2ccc(O)c3c(=O)cc(-c4ccccc4Cl)oc23)cc1,x,x,-10.4,13.6,-0.4%,
CC(C)NC(=O)Cn1cnc2c(cnn2-c2ccc(F)cc2)c1=O,x,x,0.0,1.1,x,
C=CCN(C(=O)c1csnn1)C(C(=O)NC1CCCCC1)c1ccc(Cl)cc1 (stereo unspecified),x,x,-1.2,-1.3,x,
O=C(O)c1ccc(CSc2nnc(COc3ccc(Cl)cc3Cl)o2)cc1,-47.7,15.9,10.7,6.4,16.2%,Arbovirus inh repeat=0.1
C/C(=C\c1ccccc1)CN1CCN(c2cccc(Cl)c2)CC1,-5.8,-1.6,0.2,11.7,-5.0%,
Nn1c(SCC(=O)N2CCCc3ccccc32)nnc1-c1ccccc1,-29.9,6.5,-8.1,2.1,1.2%,
Cc1nc(-c2cc(-c3nc(-c4cc(C(F)(F)F)cc(C(F)(F)F)c4)no3)no2)cs1,x,x,-8.3,-3.0,-1.1%,
CN(C)C(CNC(=O)c1cccc(S(=O)(=O)N2CC3(C)CC2CC(C)(C)C3)c1)c1ccco1 (stereo unspecified),-42.6,-17.5,-4.5,9.2,-5.0%,
N/C(=N\OC(=O)c1ccc2c(c1)OCO2)c1cccc([N+](=O)[O-])c1,x,4.1,90.8,-0.7,u,
COc1ccc(S(=O)(=O)NCc2ccccn2)cc1NC(=O)c1ccc(C)cc1,x,x,-2.1,1.3,x,
CCOC(=O)c1sc(=S)n(-c2ccc(Cl)cc2)c1C,-13.1,0.6,6.7,1.5,12.8%,
CCN(CC)C(=O)CCCOc1ccc(Cl)cc1Cl,-2.1,-18.1,-1.3,2.2,7.2%,Arbovirus inh repeat=-14.8
Cc1ccc(C(C[N+](=O)[O-])c2c(-c3ccccc3O)[nH][nH]c2=O)cc1 (stereo unspecified),-23.2,-27.3,98.3,52.7*,4.8%,
COc1ccc(-n2c(C)cc(C(=O)CN3C(=O)NC4(CCCc5sccc54)C3=O)c2C)cc1 (stereo unspecified),-35.1,-22.3,86.1,12.0,52.4%,
COc1ccccc1N(CC(O)COc1ccccc1C)S(=O)(=O)c1ccccc1 (stereo unspecified),-28.8,-5.3,-4.4,8.8,0.2%,
O=P(O)(COc1ccccc1)COc1ccccc1,-27.8,9.8,6.9,0.5,-4.5%,
COCCCNC(=O)/C(C#N)=C/c1c(N2CCN(c3cccc(Cl)c3)CC2)nc2c(C)cccn2c1=O,x,x,88.3,0.1,x,
NC(=O)c1ncc(C(F)(F)F)cc1Cl,x,3.3,1.2,2.6,0.5%,
CCN1C(=O)C(CC(=O)Nc2ccc(OC)cc2)N(CCc2ccccc2)C1=S (stereo unspecified),x,-28.3,3.8,5.6,4.3%,
O=C(NC(Cc1c[nH]c2ccccc12)C(=O)NCCCN1CCOCC1)c1cccs1 (stereo unspecified),x,7.6,-1.8,1.1,5.9%,
Cc1ccc(C2(C)NC(=O)N(CC(=O)N(C)CC(=O)Nc3cccc4ccccc34)C2=O)cc1 (stereo unspecified),x,x,-3.4,0.4,x,
CCc1cccc(OCCN2CCCC2)c1,-23.1,-3.0,-4.3,1.8,-3.3%,
COc1cccc(C(=O)N(CN2CCCC2=O)c2cccc(Cl)c2)c1OC,-17.2,1.6,u,0.7,-9.9%,
O=C(CC1C(=O)NCCN1Cc1ccc(-c2ccccc2)cc1)NCC1CC1 (stereo unspecified),x,-4.4,1.9,5.5,1.2%,
Cc1cc(C(=O)Nc2sc(C)c(C)c2C#N)no1,-21.4,-6.4,-7.6,2.6,-0.7%,
CC(C)(Oc1ccc(Cl)cc1)C(=O)NCCN1C(=O)S/C(=C/c2cccnc2)C1=O,-43.4,0.4,2.7,28.3,6.6%,
Cc1ccc(S(=O)(=O)N(CC(=O)N2CCCCCC2)c2ccccc2)cc1,-16.3,6.1,-17.0,1.8,1.8%,
O=C(NC(=S)NCC1CCCO1)c1ccccc1 (stereo unspecified),-25.1,-9.0,-6.7,-0.2,0.0%,
Cc1cc2ccccc2c(=O)n1CC(=O)N1CCN(c2cccc(Cl)c2)CC1,-25.7,-2.9,0.1,1.9,-3.8%,
N#C/C(=C\Nc1ccccc1SC(F)(F)F)c1nc(-c2ccc(Cl)cc2)cs1,-19.9,-14.0,2.3,0.8,4.0%,
CC1CC(C)CN(C(=O)c2cccc(S(=O)(=O)Nc3cc(C(F)(F)F)ccc3Cl)c2)C1 (stereo unspecified),-26.2,23.3,1.4,4.3,-15.0%,
Cc1ccc2c(c1)c1n[nH]c(=S)nc1n2CCc1ccccc1,x,x,0.2,-2.7,x,
Cc1nnc(SCC(=O)NNC(=O)c2ccco2)s1,x,x,-6.6,-2.1,x,
C=CCn1c(NC(C)c2cc(Cl)ccc2O)nc2ccccc21 (stereo unspecified),-16.2,20.9,17.0,24.0,x,Arbovirus inh repeat=-15.1
CC(OC(=O)/C(C#N)=C/c1ccc(N(C)C)cc1)C(=O)N(C)Cc1ccccc1 (stereo unspecified),x,x,-8.6,1.0,x,
Cc1ccc(CNS(=O)(=O)c2ccccc2[N+](=O)[O-])cc1,x,-0.5,3.1,-0.5,-2.5%,
NC(=O)c1c(Nc2nc3c(F)cccc3s2)sc2c1CCCC2,-29.7,4.1,56.4,-1.9,21.8%,
O=C(CNS(=O)(=O)c1cccc2nsnc12)NCc1ccc(Cl)cc1,-2.0,-5.7,-1.4,3.0,-9.5%,Arbovirus inh repeat=4.5
Cc1sc(NC(=O)CCCC(=O)O)c(C(N)=O)c1-c1ccccc1,x,3.0,3.0,-3.9,0.4%,
Clc1ccc2nc(COc3ccccc3)[nH]c2c1,x,x,0.7,4.0,x,
O=S(=O)(NC1CCCC1)c1ccc(S(=O)(=O)N(Cc2cccs2)CC2CCCO2)cc1 (stereo unspecified),-35.1,-6.0,11.7,5.3,-8.6%,
Cc1cccc(Nc2c([N+](=O)[O-])c(=O)oc3ccccc23)c1,x,x,-3.6,-1.0,14.2%,
CC(C)NC(=O)Cn1cc(C(=O)COc2ccccc2)c2ccccc21,x,3.5,-5.3,-9.3,-2.9%,

# In the list so far, these contain an aryl methoxy group:
SMILES,YopH PTP inh,Arbovirus inh,Mtb betalactam,RecA splice inh,Mtb growth,others
COc1cccc(-n2nnc3c(=O)n(CC(=O)N4CCCc5ccccc54)cnc32)c1,-19.2,4.6,-1.5,-4.9,2.6%,
COc1cccc(-n2nnc3c(=O)n(CC(=O)Nc4cc(C)on4)cnc32)c1,x,-4.3,3.5,1.4,12.3%,
COc1ccc(S(=O)(=O)NCc2ccccn2)cc1NC(=O)c1ccc(C)cc1,x,x,-2.1,1.3,x,
COc1ccc(-n2c(C)cc(C(=O)CN3C(=O)NC4(CCCc5sccc54)C3=O)c2C)cc1 (stereo unspecified),-35.1,-22.3,86.1,12.0,52.4%,
COc1ccccc1N(CC(O)COc1ccccc1C)S(=O)(=O)c1ccccc1 (stereo unspecified),-28.8,-5.3,-4.4,8.8,0.2%,
CCN1C(=O)C(CC(=O)Nc2ccc(OC)cc2)N(CCc2ccccc2)C1=S (stereo unspecified),x,-28.3,3.8,5.6,4.3%,
COc1cccc(C(=O)N(CN2CCCC2=O)c2cccc(Cl)c2)c1OC,-17.2,1.6,u,0.7,-9.9%,

# 2 records picked at random from the list so far:
SMILES,YopH PTP inh,Arbovirus inh,Mtb betalactam,RecA splice inh,Mtb growth,others
CC(C)NC(=O)Cn1cc(C(=O)COc2ccccc2)c2ccccc21,x,3.5,-5.3,-9.3,-2.9%,
Cc1sc(NC(=O)CCCC(=O)O)c(C(N)=O)c1-c1ccccc1,x,3.0,3.0,-3.9,0.4%,

# The listing continues.
SMILES,YopH PTP inh,Arbovirus inh,Mtb betalactam,RecA splice inh,Mtb growth,others
Brc1cc2c(cc1/C=N/Nc1nc(N3CCCC3)nc(N3CCOCC3)n1)OCO2,-53.1,-10.3,5.8,-1.2,-0.3%,
O=C(Cn1ncc2c1-c1ccccc1OC2)Nc1ccc(Cl)cn1,-24.0,-6.1,4.2,1.2,-1.4%,Arbovirus inh repeat=0.4
COc1ccccc1NS(=O)(=O)c1ccc(C(=O)OCC(=O)NCc2ccco2)cc1,-34.1,6.5,-5.3,-1.1,-7.4%,
CCC(=O)N1CCc2cc(S(=O)(=O)CCC(=O)N3CCN(c4ccccc4)CC3)ccc21,x,x,2.2,0.9,x,
CC1CN(C(=O)c2ccc(COc3ccc(C(C)C)cc3)o2)CC(C)O1 (stereo unspecified),x,-3.4,-0.4,-0.8,0.6%,
CCOC(=O)N1CCN(C(=O)CN(c2cc(Cl)ccc2OC)S(=O)(=O)c2ccccc2)CC1,-38.6,1.9,-7.3,-2.8,-0.3%,Arbovirus inh repeat=1.5
O=C(NCC(c1ccco1)N1CCc2ccccc21)c1ccc([N+](=O)[O-])cc1 (stereo unspecified),x,x,98.9,-3.2,x,
CC(C)C(OC(=O)c1ccco1)C(=O)NCc1ccc2c(c1)OCO2 (stereo unspecified),x,x,-4.4,0.8,x,
Cc1ccc(SCC(=O)Nc2cccc(-c3nnc(-c4ccco4)o3)c2)cc1,-38.8,-3.6,-17.0,2.6,-0.3%,
COc1ccc(CN2CCN(C(=O)c3cccc(OC)c3OC)CC2)cc1OC,x,4.0,-1.9,-2.1,4.8%,
COc1ccc(COC(=O)N/N=C(\C)CC(=O)Nc2ccc(Cl)cn2)cc1,x,x,1.3,45.3*,-1.7%,
COC(=O)c1cc(NC(=O)N2c3ccccc3Sc3ccccc32)cc(C(=O)OC)c1,-41.8,-0.6,71.5,14.5,91.9%,
COc1ccc(C(CC(=O)O)N2Cc3ccccc3C2=O)cc1OC (stereo unspecified),x,x,-9.2,-0.2,x,
O=C(CSc1nnc(-c2cccnc2)o1)Nc1cccc(F)c1,x,x,2.2,-1.8,x,
O=C(O)CCC(=O)NNc1nc2ccccc2nc1-c1ccccc1,x,1.1,-8.5,-1.6,-4.3%,
Oc1[nH]c2ccccc2c1C=Nc1ccc2c(c1)OCO2,-29.3,-13.3,7.9,0.6,4.7%,Arbovirus inh repeat=-14.3
COc1cccc(C(=O)N/N=C/C(Br)=C/c2ccccc2)c1,-27.7,12.6,98.3,5.6,u,
CCOCCCNC(=O)N1CCOCC1,-5.1,1.3,2.0,-2.5,-7.0%,
COc1ccccc1S(=O)(=O)Cc1ccc(C(=O)NCCN(C)C)o1,0.8,2.7,-10.2,0.3,-6.8%,Arbovirus inh repeat=-6.6
Cn1c(=O)c2c(nc(NCc3ccc4c(c3)OCO4)n2Cc2ccc(F)cc2)n(C)c1=O,-24.6,-1.5,0.8,-1.2,-14.6%,
Brc1ccc2c(c1)OCCOCCOCCOCCOCCOCCO2,-0.5,9.3,-8.3,1.5,1.7%,
CCC(CO)N=C1CC(C)(C)CC(=O)/C1=C(/O)CCCN1C(=O)c2ccccc2C1=O (stereo unspecified),x,-0.6,-1.3,0.7,2.2%,
